NS1 inh = blocks influenza NS1 protein function. S. cerevisiae slowed by influenza A NS1, growth recovery by OD600. Potency, µM (top dose mostly 46.1 µM), inactives show top-dose activity, positive = more growth. 0.4% of 270,000 active; active means well fitted rising curve with a large enough effect; inconclusive means small, poorly fitted or top-dose-only effect; inactive means no such curve, though single readings can be large or run the other way; further: nearly all actives have a fitted effect of over 50% in size
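S. cerevisiae expressing influenza A NS1, grown in glucose, washed, then diluted 1:100 into pH 6.0 -URA galactose medium with 23 nl compound. Growth recovery read as OD600; NS1-free strain serves as control.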
2A StopGo = FMDV 2A StopGo reporter, luciferase signal; human cells with a luciferase reporter of 2A StopGo recoding; control for the full effect not named in the record; Potency, µM (titrated, usually from 57.9 µM), inactives show top-dose signal change, negative = less light; 1.2% of 410,000 active; AID 1159524; active = well fitted falling curve with a large enough effect; inconclusive = small, poorly fitted or top-dose-only effect; inactive = no such curve, though single readings can be large or run the other way; tested in HEK293T cells; further: on the % scale 0 is the no-effect control and ±100 the full control effect; nearly all actives have a fitted effect of over 45% in size; luciferase light after 4 h
Cruzain Triton = blocks cruzain activity in presence of Triton detergent; purified cruzain, Z-FR-AMC fluorescence, 0.01% Triton; Potency, µM, inactives show max response, negative = inhibition, usual class: inhibitors; AID 1478; 0.43% of 200,000 active; P25779;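 further: plate controls were neutral wells for no effect and buffer without enzyme for full effect; nearly all actives have a fitted effect of over 40% in size; top concentration of the series not given in the record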
Target sequence (P25779 123-467 limits assumed): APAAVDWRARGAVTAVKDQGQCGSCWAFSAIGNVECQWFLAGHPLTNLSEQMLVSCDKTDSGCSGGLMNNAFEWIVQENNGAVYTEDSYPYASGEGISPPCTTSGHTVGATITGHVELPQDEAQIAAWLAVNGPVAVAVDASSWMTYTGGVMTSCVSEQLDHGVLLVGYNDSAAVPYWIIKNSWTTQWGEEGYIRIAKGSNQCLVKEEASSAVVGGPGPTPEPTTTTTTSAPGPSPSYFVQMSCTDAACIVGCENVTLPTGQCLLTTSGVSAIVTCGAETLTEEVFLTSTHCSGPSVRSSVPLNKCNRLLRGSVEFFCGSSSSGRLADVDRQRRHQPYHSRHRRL
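15 min RT preincubation of 1.5 nM cruzain with compound, then 2 uM Z-FR-AMC added; kinetic AMC fluorescence, 60 s delta. Triton X-100 0.01%, pH 5.5.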
Marburg entry inh = blocks Marburg virus binding to or entry into cells; Marburg virus pseudotyped entry inhibition, cell reporter; control for the full effect not named in the record; about a third of the inactives were read at about 46 µM; Potency, µM (series often up to 37.8 µM), for inactives: top-dose activity change, negative = inhibition, most hits filed as inhibitors; 1.8% of 300,000 active; AID 540276; active = well fitted inhibition curve with a large enough effect; inconclusive = small, poorly fitted or top-dose-only effect, or effect the other way; inactive = flat fitted curve, though single readings scatter; tested in HEK293 cells; about a fifth of its hits are not listed in these tables; further: on the % scale 0 is the no-effect control and ±100 the full control effect; luciferase read-out
SARS PLpro yeast = inhibitors of SARS-CoV papain-like protease in yeast. S. cerevisiae expressing SARS-CoV PLpro, growth rescue; control for the full effect not named in the record. Potency, µM (titrated, usually from 32.9 µM), for the others: at the highest dose activity, positive = growth rescue. 0.19% of 330,000 active; active means well fitted rising curve with a large enough effect; inconclusive means small, poorly fitted or top-dose-only effect; inactive means no such curve, though single readings can be large or run the other way; further: 0% is about no effect; nearly all actives have a fitted effect of over 55% in size; growth read by luminescence after 48 h
RE007 growth inh = less growth of the S. pombe RE007 Vpr strain; S. pombe RE007 Vpr strain, BacTiter-Glo ATP luminescence, 24 h; control for the full effect not named in the record; Potency, µM (top dose mostly 92.2 µM), for the others: at the top dose activity change, negative = less growth; 0.21% of 360,000 active; AID 651644; active = well fitted falling curve with a large enough effect; inconclusive = small, poorly fitted or top-dose-only effect; inactive = no such curve, though single readings can be large or run the other way;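 further: on the % scale 0 is the no-effect control and ±100 the full control effect; nearly all actives have a fitted effect of over 50% in size; the assay follows cell death caused by Vpr and the record does not say whether a fall means rescue or toxicity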
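Fission yeast strain RE007, carrying one chromosomally integrated HIV-1 vpr copy, was seeded at OD 0.01 in PMG+AL medium with 23 nL pinned compound. After 24 h at 30 °C and 99% humidity, viability was read by BacTiter-Glo luminescence.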
Lassa entry inh = inhibitors of Lassa virus binding or cell entry. AID 540256. 1.2% of 300,000 active. Lassa virus pseudotype entry inhibition, cell reporter; control for the full effect not named in the record. Potency, µM (doses to about 37.9 µM), for inactives: at the highest dose activity change, negative = inhibition, most hits filed as inhibitors; active means well fitted inhibition curve with a large enough effect; inconclusive means small, poorly fitted or top-dose-only effect, or effect the other way; inactive means flat fitted curve, though single readings scatter; tested in HEK293 cells; further: on the % scale 0 is the no-effect control and ±100 the full control effect; nearly all actives have a fitted effect of over 50% in size; luciferase read-out
Cruzain noTriton = cruzain (T. cruzi) inhibition without detergent; Potency, µM, for the others: max response, negative = inhibition, usual class: inhibitors; 2.3% of 200,000 active; P25779; purified cruzain, Z-FR-AMC fluorescence, no detergent;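 further: plate controls were enzyme without inhibitor for no effect and buffer without enzyme for full effect; nearly all actives have a fitted effect of over 40% in size; top concentration of the series not given in the record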
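Detergent-free condition (0.00005% Triton X-100) in acetate buffer pH 5.5 with DTT. 1.5 nM enzyme and compound were pre-mixed 15 min, then 2 uM Z-FR-AMC substrate added; reaction progress from fluorescence change between first and third reads (60 s).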
* hit, by the source's call; ? = inconclusive; nt = no result given; [ ] = another dose, or the depositor's remark. Unless noted, the call rests on the fitted dose curve; in most records, active means well fitted curve in the direction sought with a large enough effect; inconclusive means small, poorly fitted or top-dose-only effect, or another doubt; inactive means no such curve, though single readings can be large; an effect the other way counts as inactive or inconclusive. Potency means the concentration at half of the fitted maximal effect. Rows were taken by chance; 4.7% or so of the library scored in one or more.

Each structure is followed by: 2A StopGo	Marburg entry inh	Cruzain noTriton	SARS PLpro yeast	Cruzain Triton	NS1 inh	Lassa entry inh	RE007 growth inh
Cc1ccc(-c2nn(C)c(=O)c3ccccc23)cc1CNC(=O)/C=C/c1ccccc1
    -24.9%	?	-11.1%	6.6%	-21.7%	?	20.6µM*	-6.3%
CCN(CC)S(=O)(=O)c1ccc(OC(C)C)c(NC(=O)C2=COCCO2)c1
    -0.5%	?	nt	-1.6%	nt	nt	?	3.4%
CCOc1ccc(C(=O)Nc2ccc3c(c2)N(C(C)=O)CCC3)cc1OCC
    -61.4%	nt	1.1%	nt	-0.9%	nt	9.3%[46.1 µM]	nt
O=S(=O)(NC1=NCCCCC1)c1ccc(F)cc1
    0.6%	9.8%	nt	-0.7%	nt	2.5%	9.4%	12.6%
O=C(O)C1CCC(=O)N1Cc1ccc(F)cc1 (stereo unspecified)
    nt	23.6%	-5.0%	1.1%	1.6%	3.0%	15.0%	13.2%
C=CCSC1=NNC(c2ccc(C(C)(C)C)cc2)=NN1
    28.4%	6.0%	nt	-0.1%	nt	0.9%	-1.4%	39.2%
Cc1c(N=C/C=C/c2ccccc2)cnn1C
    -9.2%	-0.5%	14.6%	-6.1%	1.7%	-11.1%	-15.7%	-20.2%
Cc1ccc2c(c1)C(c1ccccc1)=NCC(=O)N2
    -3.7%	?	nt	5.7%	nt	-5.6%	-26.6%[46.1 µM]	9.8%
COc1cccc(NC(=O)CCC2CCN(C(=O)C3CC=CCC3)CC2)c1 (stereo unspecified)
    -8.8%	nt	nt	3.4%	nt	?	nt	3.9%
CC(C)C[C@H]1CN=C(Nc2ccccc2)N1CCCC1CCCC1
    ?	nt	nt	-7.0%	nt	-39.7%	nt	-13.3%
CCCCn1c(N)c(N(CC(C)C)C(=O)c2cc(C)nc3ccccc23)c(=O)[nH]c1=O
    -19.8%	?	nt	2.9%	nt	nt	1.4%	-10.9%
C[C@@H](C(=O)Nc1ccc2c(c1)OCCO2)n1nnc2ccccc2c1=O
    0.0%	0.6%[46.1 µM]	nt	1.1%	nt	-4.7%	-20.2%[46.1 µM]	0.4%
COc1ccc(C)cc1NC(=O)C1CCN(S(=O)(=O)c2ccc3[nH]c(=O)oc3c2)CC1
    -10.5%	nt	2.3%	nt	-2.3%	nt	-11.2%[46.1 µM]	nt
COCCn1cnc2c1c(=O)[nH]c(=O)n2Cc1ccccc1
    -0.9%	nt	nt	0.7%	nt	-0.1%	nt	7.3%
C=CCC(C(=O)OC)(C(=O)OC)c1ccccc1[N+](=O)[O-]
    -1.4%	-8.5%[46.1 µM]	nt	-0.4%	nt	-3.7%	0.0%[46.1 µM]	-7.2%
O=C(CNC(=O)Cn1ccc2ccccc2c1=O)NCCCN1CCCCCC1
    -8.8%	3.1%	-3.1%	-14.0%	-3.9%	-3.4%	-9.8%	-5.9%
Cc1ccc(NC(=O)CC2S/C(=N/N=C3/NC(=O)CS3)NC2=O)cc1 (stereo unspecified)
    -8.8%	1.0%	nt	0.6%	nt	7.9%	?	3.0%
CCc1c(C)nc2c(-c3ccccc3)c(C)[nH]n2c1=O
    ?	?	nt	-3.4%	nt	-7.2%	-2.4%	-7.4%
CCOc1ccc(-n2nc3ccc(NC(=O)c4ccc5c(c4)OCCO5)cc3n2)cc1
    nt	?	12.6µM*	-10.3%	-3.0%	-4.9%	?	-0.3%
Cc1ccc(C)c(Nc2nn3c(=O)c4ccc(C(=O)NCCc5ccccc5)cc4nc3s2)c1
    0.0%	nt	4.9%	nt	-2.3%	nt	2.6%[46.1 µM]	nt
Cc1ccc(NC(=O)CSc2nnc(-c3cc(C)on3)o2)cc1
    1.6%	-13.5%[46.1 µM]	nt	0.1%	nt	-8.9%	nt	0.3%
CCOC(=O)c1ccc(COC(=O)CNC(=O)CNC(=O)c2ccc(OC)cc2)o1
    -17.7%	-2.7%	-2.4%	2.0%	0.3%	?	-3.9%	2.4%
O=C(NC(=S)N1CCCCC1c1cccnc1)c1ccccc1 (stereo unspecified)
    -19.1%	nt	nt	0.1%	nt	-11.0%	nt	19.0%
CN(C)c1ccc(CNC(=O)CN2C(=O)CSc3ccc(S(=O)(=O)N4CCCC4)cc32)cc1
    10.3%	nt	14.9%	nt	0.3%	nt	-1.8%[46.1 µM]	nt
COc1ccc(-n2nnnc2SCC(=O)Nc2nnn(C)n2)cc1
    7.2%	14.5%	-1.4%	-4.5%	2.7%	-5.0%	-11.2%	-0.9%
COc1ccc(Cn2c(CNS(=O)(=O)c3ccc(C)c(C)c3)nc3cccnc32)cc1
    72.8%[activator]	nt	-10.8%	nt	-5.9%	nt	10.5%[46.1 µM]	nt
O=C1c2ccccc2C(Nc2ccc(F)cc2F)N1CCN1CCOCC1 (stereo unspecified)
    -26.6%	-2.2%	-9.2%	3.4%	-1.1%	7.8%	7.6%	-4.1%
CC(=O)OCC1OC(c2ccccc2)C(OC(C)=O)C(OC(C)=O)C1OC(C)=O (stereo unspecified)
    -18.1%	1.4%	2.6%	2.6%	2.0%	-23.7%	17.6%	-7.5%
O=[N+]([O-])c1cccc(C2Nc3cccc4cccc(c34)N2)c1
    -10.5%	17.3%	?	-9.4%	-8.5%	16.0%	2.4%	0.2%
Cc1ccc(CNC(=O)CCc2c(C)nc3nc(CNC(=O)OC(C)(C)C)nn3c2C)cc1
    -21.7%	1.0%[46.1 µM]	11.1%	nt	-1.8%	nt	24.1%[46.1 µM]	nt
Cc1ccc2cc(/C=N/NC(=O)c3ccc(F)cc3)c(Cl)nc2c1
    -15.0%	1.0%	nt	1.9%	nt	nt	12.1%	-8.0%
CN(C)CCCn1c(NCc2ccc3c(c2)OCO3)nc2ccccc21
    -11.8%	?	-9.4%	-5.5%	-0.5%	-2.8%	-11.8%	-14.0%
O=C(Nc1cccc2ccccc12)N1CCN(c2ccc(F)cc2)CC1
    -12.8%	4.7%	-8.3%	-2.7%	-1.2%	3.2%	8.4%	-16.9%
COC(=O)C1=C(C)N(Cc2ccc(OC)c(OC)c2)C(=O)C1
    0.0%	?	-3.2%	23.0%	0.7%	17.5%	4.0%	-1.6%
Cc1nc(NC(=O)c2cccc(Cl)c2)sc1-c1csc(Nc2cccc(Cl)c2)n1
    nt	nt	?	-2.4%	3.9%	9.7%	nt	nt
N#CCSc1nc2ccccc2c(=O)n1CCCC(=O)NCc1ccco1
    -18.9%	15.6%[46.1 µM]	nt	0.8%	nt	nt	6.5%	5.1%
CCOc1ccc(CCNC(=O)Cc2ccc(NC3=NC4CS(=O)(=O)CC4S3)cc2)cc1OCC (stereo unspecified)
    -5.6%	nt	nt	-2.2%	nt	4.7%	nt	-6.5%
Cc1cc(C)n2nc(C(=O)N/N=C/C=C/c3ccccc3)nc2n1
    10.3%	nt	nt	-1.4%	nt	-2.2%	nt	1.0%
C/C(=N\NC(N)=S)c1cccnc1
    -9.5%	-17.1%[46.1 µM]	nt	1.0%	nt	1.2%	-1.5%[46.1 µM]	1.2%
COc1cc(CNCCCN2CCOCC2)c(Br)cc1OC(C)C
    -4.2%	?	nt	-2.1%	nt	13.9%	?	4.8%
CC(=O)c1c(C)cc(C)c(CSc2nc(C)cc(=O)[nH]2)c1C
    nt	?	-8.3%	7.1%	4.7%	-7.4%	-14.2%	7.5%
O=C(NCC1CCCO1)/C(=C\c1cccs1)NC(=O)c1ccccc1 (stereo unspecified)
    1.7%	-4.3%[46.1 µM]	nt	0.0%	nt	-1.2%	6.3%	1.2%
Cc1ccc2cc(S(=O)(=O)NCCC(=O)O)ccc2c1
    38.9%[activator]	1.3%	0.0%	11.4%	5.9%	-4.5%	5.4%	6.5%
COc1ccc(N=C2CCCN2CC(N)=O)cc1
    -10.7%	-3.1%	1.1%	6.8%	5.8%	6.5%	-11.7%	11.4%
Oc1ccc(C=NNC(=S)Nc2ccc(F)cc2)c(O)c1
    35.4%[activator]	?	nt	nt	nt	nt	-8.3%[46.1 µM]	-9.6%
O=C1C=C(c2cccs2)CC(c2cccs2)C1n1cnc([N+](=O)[O-])c1 (stereo unspecified)
    -7.1%	-14.5%	-17.3%	2.7%	-6.0%	-4.2%	-9.0%	-11.5%
CCOc1ccc(C(=O)Nc2ccccc2-c2ccccc2)cc1Cl
    -27.7%	-29.9%	9.7%	-0.7%	0.8%	-10.2%	-17.5%	6.8%
Cc1c(C(=O)N(CCO)Cc2ccccc2)oc2c(F)cccc12
    56.3%[activator]	nt	nt	-0.7%	nt	-17.4%	nt	-4.6%
CCc1ccc(NC(=O)CCNC(=O)N2C[C@H]3C[C@@H](C2)c2cccc(=O)n2C3)cc1
    17.7%	nt	nt	1.6%	nt	-6.2%	nt	-13.7%

Entries listed so far that contain a COOH group, in the order listed:
Each structure is followed by: 2A StopGo	Marburg entry inh	Cruzain noTriton	SARS PLpro yeast	Cruzain Triton	NS1 inh	Lassa entry inh	RE007 growth inh
O=C(O)C1CCC(=O)N1Cc1ccc(F)cc1 (stereo unspecified)
    nt	23.6%	-5.0%	1.1%	1.6%	3.0%	15.0%	13.2%
Cc1ccc2cc(S(=O)(=O)NCCC(=O)O)ccc2c1
    38.9%[activator]	1.3%	0.0%	11.4%	5.9%	-4.5%	5.4%	6.5%

Shown field by field: two of the compounds above.
O=C(Nc1cccc2ccccc12)N1CCN(c2ccc(F)cc2)CC1
  2A StopGo = -12.8%; Marburg entry inh = 4.7%; Cruzain noTriton = -8.3%; SARS PLpro yeast = -2.7%; Cruzain Triton = -1.2%; NS1 inh = 3.2%; Lassa entry inh = 8.4%; RE007 growth inh = -16.9%
COC(=O)C1=C(C)N(Cc2ccc(OC)c(OC)c2)C(=O)C1
  2A StopGo = 0.0%; Marburg entry inh = ?; Cruzain noTriton = -3.2%; SARS PLpro yeast = 23.0%; Cruzain Triton = 0.7%; NS1 inh = 17.5%; Lassa entry inh = 4.0%; RE007 growth inh = -1.6%

Screens: PubChem BioAssay, National Center for Advancing Translational Sciences (NCATS)
